From PubChem
gsp antagonist: gsp mutant antagonism. 0.4% of 340,000 active. AID 624288. gsp-mutant cells, cAMP HTRF, 30 min; control for the full effect not named in the record. Potency, µM (series often up to 76.9 µM), for the others: at the highest dose activity change, negative = inhibition, usual class: inhibitors; active = falling curve of any shape with a large fitted effect; inconclusive = falling curve, mostly with a smaller effect; inactive = flat or rising curve; cell line not stated here;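 further: intracellular cAMP measured with PDE inhibitor Ro 20-1724 present during compound exposure; potency means the concentration at half of the fitted maximal effect; on the % scale 0 is the no-effect control and ±100 the full control effect; nearly all actives have a fitted effect of over 65% in size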
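Cells in G418 medium, seeded 16-24 h, 37C; buffer exchange to DPBS + 1 mM CaCl2, 0.5 mM MgCl2, 0.05% BSA; cpds in DMSO + […] (300 uM stock), 30 min 37C; HTRF cAMP detection.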
Menin-MLL FL inh: displaces fluorescein MLL peptide from human menin. Fluorescence polarization, fluorescein-MLL peptide displacement from menin. FP activity change, % at 61.4 µM. 290,000 tested, under 10 active. AID 1766; inconclusive = falling polarisation curve, or a change in total fluorescence; inactive = total fluorescence flat and polarisation flat or rising; no compound was filed as active; the % refers to the polarisation; negative = inhibition;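 further: % of control where 0% means no effect; inhibitors lower the polarisation; unlabelled MLL peptide was the positive control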
gsp ag: gsp mutant agonism; gsp mutant cells, cAMP HTRF, 30 min; control for the full effect not named in the record; Potency, µM (doses to about 76.9 µM), for inactives: at the highest dose activation (cAMP increase), most hits filed as activators; 0.13% of 340,000 active; AID 624287; active = well fitted activation curve with a large enough effect; inconclusive = small, poorly fitted or top-dose-only effect, or another doubt; inactive = no such curve, though single readings can be large or run the other way; cell line not stated here;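 further: phosphodiesterase inhibitor Ro 20-1724 added with compounds to block cAMP breakdown; potency means the concentration at half of the fitted maximal effect; nearly all actives have a fitted effect of over 60% in size; about a fifth of the inactives were tested at one dose only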
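Cells in DMEM/10% FBS with G418 were pretreated with compounds in DMSO plus […] (300 uM stock) for 30 min at 37C. cAMP was measured by HTRF (cAMP-d2 plus anti-cAMP antibody-K) after 30 min at room temperature.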
ClpP mod: qHTS Assay for Activators of ClpP. 1.9% of 340,000 active. AID 651965, 2013. Potency, µM (highest dose often 57.5 µM), for inactives: at the highest dose activity change, negative = active. purified B. subtilis ClpP, FRET peptide cleavage, 20 min; active = well fitted falling curve with a large enough effect; inconclusive = small, poorly fitted or top-dose-only effect; inactive = no such curve, though single readings can be large or run the other way; further: potency means the concentration at half of the fitted maximal effect; the source files actives as falling curves though it sought activators and does not explain the sign; nearly all actives have a fitted effect of over 65% in size; many hits overshoot -100%
Target sequence (P80244 whole entry, looked up): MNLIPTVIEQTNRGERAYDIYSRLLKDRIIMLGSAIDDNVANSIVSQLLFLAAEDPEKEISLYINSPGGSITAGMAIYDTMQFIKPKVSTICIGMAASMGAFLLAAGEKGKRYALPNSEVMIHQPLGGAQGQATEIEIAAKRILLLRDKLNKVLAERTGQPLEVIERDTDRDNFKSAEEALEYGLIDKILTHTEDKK
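Purified B. subtilis ClpP, 10 microg/mL final in Tris/HCl pH8 with KCl, BSA, glycerol and Tween-20, cleaved an Abz/nitrotyrosine-quenched decapeptide. Fluorescence (ex 320, em 430) was read at 0 and 20 min at room temperature. Delta was normalized to 5.8 microM ADEP and DMSO/no-enzyme controls.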
PINK1 modulator: PINK1 expression modulation. Potency, µM (series often up to 76.6 µM), for the others: at the top dose activation (PINK1 increase), most hits filed as activators. AID 624263. PINK1 immunofluorescence, high-content cytometry, 24 h. 0.2% of 410,000 active; active = well fitted activation curve with a large enough effect; inconclusive = small, poorly fitted or top-dose-only effect; inactive = flat fitted curve, though single readings scatter; cell line not stated here;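 further: potency means the concentration at half of the fitted maximal effect; % of control where 0% means no effect; nearly all actives have a fitted effect of over 65% in size; a mitochondrial uncoupler was the plate control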
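PINK1 protein level read as immunofluorescence by microplate cytometer in a fixed, stained stable cell line after 24 h exposure to five compound concentrations, with CCCP as control.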
D2 agonist: activates the human D2 dopamine receptor; P14416; DiscoveRx PathHunter D2 beta-arrestin, luminescence, 90 min; 100% = 57 uM dopamine signal; activation, % (no concentration beside the values); 0.084% of 360,000 active; AID 624465; in the data active = activation above about 40%; inconclusive = about 15% to 40%; inactive = below about 15%; further: compound concentration not given in the record; the text of the record calls up to 30% inactive
Target sequence (P14416 whole entry, looked up): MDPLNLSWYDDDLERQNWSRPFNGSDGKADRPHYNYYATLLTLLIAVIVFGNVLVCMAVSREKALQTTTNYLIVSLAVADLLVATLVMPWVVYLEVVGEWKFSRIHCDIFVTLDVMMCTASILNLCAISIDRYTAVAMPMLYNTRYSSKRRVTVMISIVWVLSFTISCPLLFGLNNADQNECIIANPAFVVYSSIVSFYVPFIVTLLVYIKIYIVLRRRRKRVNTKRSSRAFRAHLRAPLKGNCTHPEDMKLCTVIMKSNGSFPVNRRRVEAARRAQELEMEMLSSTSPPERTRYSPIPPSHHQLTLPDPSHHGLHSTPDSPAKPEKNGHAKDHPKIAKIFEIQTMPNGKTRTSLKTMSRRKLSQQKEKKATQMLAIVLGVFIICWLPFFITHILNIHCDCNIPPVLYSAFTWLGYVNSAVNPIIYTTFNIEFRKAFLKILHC
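DiscoveRx PathHunter D2 beta-arrestin cells (2,100/well) attached overnight, then compound-stimulated 90 min at 37 C in HBSS/10 mM HEPES/0.1% Tween-20 buffer; beta-galactosidase complementation read by luminescence after 1 h at ambient temperature. Dopamine 57 uM final (EC100) as control.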
Sfp PPTase inh: Sfp phosphopantetheinyl transferase inhibition | Potency, µM, for the others: max response, negative = inhibition, actives largely listed as inhibitors | 3.5% of 310,000 active | Biochemical Sfp PPTase activity, qHTS | AID 1490 | Q9F4F7; active means well fitted inhibition curve with a large enough effect; inconclusive means small, poorly fitted or top-dose-only effect, or another doubt; inactive means no such curve, though single readings can be large or run the other way;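 further: the enzyme is Sfp with the accession as filed and its product quenches rhodamine fluorescence; potency means the concentration at half of the fitted maximal effect; 0% = enzyme reaction without inhibitor and -100% = no enzyme wells; top concentration of the series not given in the record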
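After 15 min at room temperature with compound, 15 nM Sfp received 5 uM rhodamine-CoA plus 12.5 uM BHQ-2-ybbR (50 mM Hepes pH 7.6, 10 mM MgCl2). Rate came from the fluorescence difference over 30 min, ex 525/em 598 nm.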
* = called active by the depositor; ? = inconclusive; . = not tested or not shown; & = joins results of further samples; [ ] = another dose, or the depositor's remark.

SMILES	gsp antagonist	Menin-MLL FL inh	gsp ag	ClpP mod	PINK1 modulator	D2 agonist	Sfp PPTase inh
Cc1ccnc(NC(=O)Cc2ccc([N+](=O)[O-])cc2)c1	6%	-1.3	0%[15.4 µM]	.	0.3%	-0.3	14%
CCOc1ccc(NS(=O)(=O)c2ccc(C(=O)NCC3CCCO3)cc2)cc1 (configuration not stated)	.	.	-79%[inhibitor]	0.6%	0.6%	-0.7	.
COc1cc(F)c(C2=CC(=O)C[C@H](c3ccc4c(c3)OCO4)C2)cc1F	-15%	.	-2%	-1.1%	0.1%	-3.6	.
CCCCOC(=O)c1ccc(NC(c2ccc(C)cc2)P(=O)(OC)OC)cc1 (configuration not stated)	?	5.4	-3%	-4.1%	0.3%	0.4	-14%
CCCS(=O)(=O)N1CCC(C(=O)N2CCCC2)CC1	19%	2.2	16%	2.1%	1.5%	0.4	16%
Nc1ccc(-c2cc(N)n(-c3ccccc3)n2)cc1	-4%	6.8	-16%	?	-1.0%	-0.5	-20%
CSCCC(NC(=O)c1ccco1)C(=O)N1CCN(Cc2ccccc2)CC1 (configuration not stated)	8%	.	?	-1.3%	0.1%	-0.8	.
COc1ccc(N2C(=O)c3ccc(C(=O)Nc4cc(OC)ccc4OC)cc3C2=O)cc1	8%	-0.9	?	0.4%	9.0%	-1.6	-4%
Cc1cccc(N2CCN(C(=O)c3cccc(N4CCCC4=O)c3)C(C)C2)c1 (configuration not stated)	-2%	.	0%	-2.8%	2.7%	0.8	-2%
Cn1c(CN2CCCCC2)nc2cc(NC(=O)c3ccccc3)ccc21	-10%	5.7	?	-2.9%	8.2%[38.3 µM]	?	11%
CN(C1=NC(=O)C(CC(=O)O)S1)c1ccc(O)cc1 (configuration not stated)	5%	0.2	0%[15.4 µM]	.	-0.6%	-4.7	15%
CCOc1ccc(NC(=O)CCCOc2cc(=O)n(C)c3ccccc23)cc1	1%	2.5	-27%	-3.2%&-0.7%	3.5%&5.2%	-3.1	27%
CC(C)NC(=O)c1ccccc1NC(=O)C1COc2ccccc2O1 (configuration not stated)	15%	0.3	4%	-16%	1.5%	-3.7	19%
CC(=O)Nc1ccc(C(C#N)c2ccccc2)cc1 (configuration not stated)	-6%	-1.2	?	.	1.5%	1.8	3%
Cc1[nH]c(=S)[nH]c(=O)c1Cc1c(O)ccc2ccccc12	8%	.	-33%[inhibitor]	?	-0.1%	9.0	.
O=C(O)C1CC(C2CCCCN2)CN2CCCCC12 (configuration not stated)	.	1.0	.	.	-0.6%	.	7%
O=C(c1ccc(Cn2cc(Cl)cn2)cc1)N1CCN(c2ccccc2)CC1	-5%	-0.2	-5%	-1.0%	7.0%	-1.9	-3%
O=C(NCc1ccco1)Nc1ccc2nsnc2c1	-5%	2.6	6%	?	7.7%	2.2	?
COC(CNC(=O)c1c[nH]c2ccc(S(=O)(=O)N3CCOCC3)cc2c1=O)OC	6%	-1.5	12%	3.6%	-1.3%	1.8	17%
CCCC(=O)Nc1ccc(NC(=O)Cc2ccccc2)cn1	-5%	-1.8	-1%	1.4%	-1.4%	-3.9	8%
CCOC(=O)c1c(C)c(-c2ccccc2)n(CC(=O)NCCC(C)C)c1C	-2%	9.4	?	-2.1%	7.4%	-8.2	15%
CCOc1cc2c(c3c1C(c1ccccc1)N(S(=O)(=O)c1ccc(C)cc1)C3)C(=O)C=CC2=O (configuration not stated)	.	.	.	1.4%	1.8%	-5.6	.
Cc1ccc(C(=O)N/C(=C\c2ccco2)C(=O)NCCN2CCOCC2)cc1C	3%	.	-7%[15.4 µM]	-1.5%	-0.6%	-5.9	15%
CN(NC1OC(=O)c2ccccc21)c1ccc(Cl)cc1[N+](=O)[O-] (configuration not stated)	-24%	3.2	13%[15.4 µM]	-0.9%	-0.1%	-5.7	9%
CC(C)Cn1c(N)c(C(=O)COC(=O)c2ccc(Cl)cc2)c(=O)n(C)c1=O	?	12	-8%	.	1.8%	4.2	3%
SMILES	gsp antagonist	Menin-MLL FL inh	gsp ag	ClpP mod	PINK1 modulator	D2 agonist	Sfp PPTase inh
Cc1noc(C)c1-c1nc(Nc2ccccc2)c2ccccc2n1	.	0.4	.	.	5.1%	.	-9%
Fc1cccc(NCc2ccoc2)c1	5%	2.2	18%	-0.3%	-3.1%[38.3 µM]	-1.6	13%
CSc1cc(-c2ccc(Cl)cc2)c(C(=O)N2CCCC2)s1	-27%	4.7	?	12%	4.9%	-1.1	-2%
COc1ccc(-c2cn[nH]c2-c2ccc(OCC(=O)NN)cc2O)cc1OC	-14%	-0.6	-2%[15.4 µM]	0.2%	0.6%	-3.4	8%
CSc1ccccc1C(=O)N1CCC(CCC(=O)NC2CC2)CC1	-10%	.	-38%[inhibitor]	0.3%	-1.5%	-2.4	13%
CCOP(=O)(OCC)C(NC(C)=O)C(=O)c1ccccc1 (configuration not stated)	-12%	-3.8	-12%	-1.8%	-0.2%	3.2	20%
COc1ccc(N2CCN(C(=O)CCNC(=O)c3ccc(C(C)(C)C)cc3)CC2)cc1	-19%	-0.2	-10%	-0.8%	1.8%	-6.7	13%
CC1(c2ccccc2)NC(=O)N(CC(=O)NNC(=O)c2ccccc2F)C1=O (configuration not stated)	4%	.	-23%[15.4 µM]	.	-0.8%	2.5	.
Cc1ccc(CCNC(=O)CS(=O)Cc2nc(-c3cccs3)oc2C)cc1 (configuration not stated)	3%	8.5	26%	-4.8%	0.0%	-6.5	-2%
Cc1nnc(N/N=C/C2CC=CCC2)[nH]c1=O (configuration not stated)	3%	1.0	-6%[15.4 µM]	.	0.8%	-2.7	79µM*
O=C(Nc1ccc(F)cc1F)Nc1csc2ccccc12	-26%	5.7	-2%[15.4 µM]	11µM*	?	4.8	7%
CCCCOc1cccc(/C=C(\C#N)C(=O)NC2CC2)c1	14%	-3.2	?	-15%	2.7%	0.3	3%
Cc1cccc(C(=O)Nc2ccc(S(=O)(=O)Nc3nc(C)cc(C)n3)cc2)c1	-2%	5.1	-12%	1.4%	0.8%	-3.1	6%
O=C1c2ccccc2C(=O)C1c1nccc2ccccc12	-4%	1.3	-26%	-0.2%	2.0%	-1.3	12%
Cc1[nH]c2ccccc2c1C(=O)CN1CCCC1	-9%	-0.9	14%	-0.2%	.	-1.5	-3%
CNC(=O)NC(=O)COC(=O)/C=C/c1cccc(Br)c1	1%	6.1	-6%	0.7%	-1.5%	7.4	11%
Cc1ccc(NC(=O)CN2C(=O)COc3ccc(S(=O)(=O)N4CCCC4)cc32)cc1C	2%	.	-3%	.	0.6%	-5.6	13%
CCSc1nnc(SCC(=O)NC2CCCCC2)s1	13%	.	?	1.8%	0.8%	-3.1	.
CCOC(=O)CNC(=O)CSc1nc(N)cc(N)n1	2%	1.7	-9%	-2.5%	-0.6%	-2.0	18%
O=C(c1ccc2c(c1)OCCO2)C1CCN(C(=O)Nc2ccccc2F)CC1	1%	-3.2	?	.	0.8%	2.1	11%
CCN(CC)c1ccc(-c2n[nH]c(=S)n2-c2ccccc2C)cc1	?	-2.4	10%	4.2%	5.9%	-1.8	?
OC(CN1CCN(c2ccccc2F)CC1)c1ccc(F)cc1 (configuration not stated)	7%	-6.9	-2%	.	8.2%	9.0	1%
COc1ccc(OCc2cn(CC(=O)c3ccc(O)cc3)nn2)cc1	10%	.	.	0.9%	0.0%	-12	.
CC1CC(C)CN(C(=O)C(C)N2CCN(S(=O)(=O)c3ccccc3F)CC2)C1 (configuration not stated)	-10%	.	5%	.	-2.3%	-3.2	.
COc1ccc(OC)c(NC(=O)COC(=O)CN2C(=O)NC3(CCCC3)C2=O)c1	-4%	.	-37%[inhibitor]	-1.1%	0.3%	-4.1	.

Brought forward from above: two compounds; new compounds follow.
SMILES	gsp antagonist	Menin-MLL FL inh	gsp ag	ClpP mod	PINK1 modulator	D2 agonist	Sfp PPTase inh
CC1CC(C)CN(C(=O)C(C)N2CCN(S(=O)(=O)c3ccccc3F)CC2)C1 (configuration not stated)	-10%	.	5%	.	-2.3%	-3.2	.
COc1ccc(OC)c(NC(=O)COC(=O)CN2C(=O)NC3(CCCC3)C2=O)c1	-4%	.	-37%[inhibitor]	-1.1%	0.3%	-4.1	.
Cn1c(=O)c2c(nc(N3CCCCC3)n2CCNC2=NCCC2)n(C)c1=O	6%	-1.4	?	-1.1%	-1.2%	4.1	11%
CCC(C)[C@H](NC(=O)[C@@H]1Cc2c([nH]c3ccccc23)C2c3ccccc3C(=O)N21)C(=O)N1CCC[C@@H]1C(=O)O (some centres not stated)	-2%	0.1	.	-13%	0.4%	-2.8	-16%
CCOC(=O)[C@H]1[C@H]2COc3ccc(Br)cc3[C@@H]2N2C(=O)c3ccc(Cl)cc3NC(=O)[C@@]12C	6%	.	.	0.9%	0.7%	-1.8	.
NC(=O)c1nsc(C(=O)N(c2cccc(F)c2)C(C(=O)NCC2CCCO2)c2cccs2)c1N (configuration not stated)	-22%	2.9	29%	.	2.6%	1.3	14%
COc1ccc(N2CCN(CC(=O)c3ccc(O)c(C)c3O)CC2)cc1	-11%	1.5	2%	-19%	0.6%	-0.8	4%
CC[n+]1c(C)cc2c(sc3ccccc32)c1C	-7%	-4.5	16%	3.9%	-0.6%	-5.0	11%
CCCc1cc(=O)oc2cc(OCC(=O)NCC3CCC(C(=O)O)CC3)ccc12 (configuration not stated)	0%	6.6	-47%[inhibitor]	3.8%	1.7%	-1.6	18%
c1ccc(N2CCN(c3nccn4ccnc34)CC2)nc1	.	.	.	-11%	1.6%	-7.7	.
Cc1cccc(NC(=O)C2CCN(c3nccc(C)n3)CC2)c1	-7%	3.2	-73%[inhibitor]	?	0.1%[38.3 µM]	-3.4	7%
COCCN1CCC(CO)C1 (configuration not stated)	4%	.	-29%	-1.2%	-5.4%	-4.9	.
CCOC(=O)N1CCN(CCC(=O)Nc2cc(OC)cc(OC)c2)CC1	-11%	0.5	?	-1.9%	0.1%	-1.2	12%
CC(C)OC(=O)CSc1nnc(-c2ccc(Cl)cc2Cl)n1N	8%	-2.5	15%	-1.6%	0.1%	0.1	-3%

This is a random part of the collection; about 5.1% have a hit in one of these screens.
